NPYLR7 ag = agonists of mosquito NPYLR7 receptor, primary screen, cell-based, Aedes aegypti, calcium fluorescence, mosquito biting behavior; activation, % at 10 µM; hit rate 0.15% among 270,000; HEK293T NPYLR7/Galpha15, GCaMP6s calcium fluorescence; Aedes aegypti neuropeptide Y-like receptor 7 (NPYLR7); in the data active means activation above about 40%;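 further: 0% = vehicle and 100% = reference agonist at the receptor; some compounds past the cut are filed as inactive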
NPYLR7 ag max-min = also measured in NPYLR7 ag; calls as there; activation, %; measured here: Max-Min RFU normalised activation; some inactives read as strong as hits;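 span of the calcium signal over five minutes; 0% = vehicle and 100% = native peptide agonist; compound fluorescence can raise it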
Numbers without * were called inactive; & = joins results of further samples.

entry	smiles	NPYLR7 ag	NPYLR7 ag max-min
1	COc1cc(NC(=O)CN(C)c2ccc(F)cc2)cc(OC)c1	23	18
2	COc1cccc(OC)c1-c1ccc(-n2cncc2C(=O)NC/C=C(\C)CCC=C(C)C)cc1	8	3
3	CCc1nc2ccc(C(=O)NCCCn3ccnc3)cn2c1N(C)C(=O)Cc1ccccc1	2	30
4	Cc1cc(OCC2CN(C(=O)Cc3ccc4c(c3)OCO4)CCO2)ccc1Cl (stereo not given)	-5	-9
5	CC(C)NC(=O)C1CCN(C2CCN(C(=O)CCC(=O)c3ccc(F)cc3)CC2)CC1	0&11	-1&4
6	CNC(=O)CC(C)N(C)Cc1cc2c(cc1OC)CCC2 (stereo not given)	5	-4
7	CCOC(=O)N1CCC(N2CCCC(C(=O)c3ccc(Cl)cc3C)C2)CC1 (stereo not given)	11	7
8	COC(=O)c1cc(CN(C)C(C)c2nc(C)sc2C)cs1 (stereo not given)	-1	-1
9	CCNS(=O)(=O)c1cccc(C(=O)N2CCCc3c(NS(C)(=O)=O)cccc32)c1	-1	-2
10	CCOc1ccc(-n2c(=O)[nH]c3c(C(N)=O)nc(-c4cccc(OC)c4O)nc32)cc1	-8	-10
11	N#CC(C(=O)C1CC1c1ccccc1Br)c1ccccn1 (stereo not given)	9	7
12	CCC1=NOC(CNCC(=O)N2CCCc3cc(C)ccc32)C1 (stereo not given)	3	3
13	Cn1cccc1C=NN1CCN(c2ccccc2)CC1	2	3
14	COc1ccccc1N1C(=O)NC(=O)/C(=C/c2ccco2)C1=O	0	-3
15	Cc1ccccc1-c1nc(CN2CCCC(c3cc(=O)[nH]cn3)C2)c(C)o1 (stereo not given)	-3	-7
16	Cc1ccc(S(=O)(=O)NC(C)c2ccccc2NS(C)(=O)=O)c(Br)c1 (stereo not given)	9	8
17	O=C(NC(C(=O)N1CCCC1)C1CCN(C(=O)c2ccc(Cl)cc2)CC1)c1ccc2c(c1)OCO2 (stereo not given)	4	6
18	CN(C)CCN(Cc1nccn1Cc1ccccc1C(F)(F)F)C(=O)c1ccc(F)cc1	19	26
19	N#CC(=Cc1ccco1)c1ccccn1	-2	-5
20	CCc1ccc(N2C(=O)C3N=NN(Cc4ccccc4)C3C2=O)cc1 (stereo not given)	1	-2
21	COC(=O)CCC(=O)N(Cc1nc2cc(C)ccc2o1)C(C)C	1	-5
22	COc1cccc(-c2nc3ccccn3c2NC(=O)C(Cl)c2ccccc2)c1 (stereo not given)	-10	-9
23	Cc1ccc(C(=O)N=c2sccn2Cc2ccc(C(=O)NC(C)c3ccccc3)cc2)cc1 (stereo not given)	6	3
24	Cc1ccc(S(=O)(=O)N2CCSC2)cc1C	6	2
25	CN(Cc1ccc2nonc2c1)c1nccc(CCC(F)(F)F)n1	9	7
26	CNc1cncc(-c2ccc(OC)c(OC)c2)n1	4	2
27	O=C(NCCn1nc(-c2cccnc2)ccc1=O)NC1CCCCC1	-6	-8
28	CN1CCN(c2onc(-c3ccc(F)cc3)c2CN(Cc2ccccc2)C(=S)Nc2ccc(F)cc2)CC1	-3	3
29	CC(=O)Nc1ccc(SCc2ccc(C(=O)N3C4CCC3CC(Oc3ccccc3C(C)C)C4)cc2)cc1 (stereo not given)	-2	-14
30	COCCCn1c(C(=O)Nc2cccc(Cl)c2)cc2c(=O)n(C)c(=O)n(C)c21	-1	-2
31	CCN1CCCCC1C(=O)NC1CCN(c2cccc(C)n2)CC1 (stereo not given)	4	2
32	COc1cc2c(=O)[nH]c(-c3ccco3)nc2c(OC)c1OC	13	6
33	Cc1cc(C)c(S(N)(=O)=O)cc1S(N)(=O)=O	6	6
34	CCCNC(=O)C1(C)CCCN(Cc2c(C)noc2C)C1 (stereo not given)	-8	-8
35	CSCCC(=O)Nc1nccs1	3	5
36	COC(=O)[C@H]1[C@H]2C[C@H]3c4[nH]c5cc(OC)ccc5c4CCN3C[C@H]2C[C@@H](OC(=O)c2cc(OC)c(OC)c(OC)c2)[C@@H]1OC	-7	-16
37	CCOc1ccc(N(CC(=O)N2CCOCC2)S(=O)(=O)c2ccc(SC)cc2)cc1	-6	-12
38	Cn1cnc2c1c(=O)n(CCCSc1nnc(-c3ccco3)o1)c(=O)n2C	0	-1
39	CCN(CC)CCn1c(=N)n(CC(=O)OC)c2ccccc21	2	0
40	CNC(CN1CCCCC1)c1ccccc1 (stereo not given)	-2	0
41	O=C(c1ccccc1OC1CCN(Cc2ccc(Cl)s2)CC1)N1CCCCC1	1	3
42	Cc1cccc(C)c1Nc1c(Cc2ccccc2)nc2ccc(Cl)cn12	27	29
43	CCC(C)N(Cc1cccc(OS(=O)(=O)c2cccc(C(F)(F)F)c2)c1)C(=O)C(C)Cl (stereo not given)	-9	-10
44	CC(=O)c1ccc(NC(=O)CSC(=S)N2CCCC2)cc1	3	2
45	CCC1C(=O)NCCN1C(=O)NCC1(c2ccc3c(c2)OCO3)CC1 (stereo not given)	2	1
46	Cc1cccc(Oc2ncnc3ccc(N)cc23)c1	-2	-4
47	COc1cc2c(cc1CNC1CCCN(Cc3ccccc3F)C1)OCO2 (stereo not given)	4	0
48	FC(F)(F)c1nc2ccccc2n1CC1CC1(Cl)Cl (stereo not given)	1	9
49	COc1ccc(CN2CCN(c3cc(Oc4cccc(Cl)c4)ncn3)CC2)cc1	2	10
50	COCCN(CC(=O)N(CCc1ccc(OC)c(OC)c1)Cc1sccc1C)C(=O)c1cccc(OC)c1	4	10
51	O=C1CSC(c2ccccc2Cl)N1c1ccccc1 (stereo not given)	-3	-6
52	CNC(=O)NC(=O)COC(=O)C1CCC(C(C)(C)C)CC1 (stereo not given)	-1	5
53	CCCN1CCCc2cc(CCNS(=O)(=O)c3cccc(F)c3)ccc21	7	2
54	CCn1cc(C(=O)N2CCN(CC(=O)N3CCCC3)CC2)c2nn(-c3ccccc3)c(=O)c-2c1	-3	-10
55	CC(=O)N1CCn2nc(C(=O)N3CCCC3c3ccccc3C)cc2C1 (stereo not given)	4	-8
56	Cc1cccc(C(=O)N2CCN(C(C)c3ccccc3)CC2)c1 (stereo not given)	-3	5
57	CC(=O)NCCNC(=O)c1nnc2n1CCN(Cc1ccc(Cl)c(F)c1)C2	10	5
58	COc1cc(CNS(=O)(=O)c2cc3c(cc2Br)NC(=O)CC3)ccn1	6	3
59	C[C@@H]1CC[C@@]23CCC4(C)[C@@](C=CC5[C@@]6(C)CCC(=O)C(C)(C)C6CC[C@]54C)(OC2=O)C3[C@H]1C (stereo not given in full)	0	-1
60	Cc1cc(C(=O)CSc2nc(N)c(C#N)cc2C#N)c(C)n1CCC1=CCCCC1	1	-1

(cont.)
entry	smiles	NPYLR7 ag	NPYLR7 ag max-min
61	CCCNC(=O)CSc1ncnc2c1nnn2C	1	9
62	CC(=O)c1c(C)[nH]c(C(=O)OCC(=O)c2cc(C)n(CC(F)(F)F)c2C)c1C	-6	-15
63	Cc1ccc(-c2cc3c(=O)n(CC(=O)Nc4ccccc4Cl)ccn3n2)cc1	19	13
64	NC(=O)c1oc2ccccc2c1NC(=O)c1coc2ccccc2c1=O	-2	3
65	CCOC(=O)N1CCN(C(=O)C(=O)c2c(C)n(C)c3ccccc23)CC1	-4	-5
66	Cc1ncsc1C(=O)N1CCOC(CCCC(C)C)C1 (stereo not given)	19	5
67	C1=C(N2CCCC2)CCCC1=NNc1ccccc1	5	10
68	CC(c1ccccc1)N(C)C(=O)c1ccc(NC(=O)C2CC2)s1 (stereo not given)	0&2	-1&1
69	COc1cc(C(=O)OC2CCCCC2=O)cc(OC)c1C (stereo not given)	0	-2
70	O=C(NCC1CCCO1)C1CC(=O)N(C2CCCC2)C1 (stereo not given)	9	6
71	CNS(=O)(=O)c1ccc(C(=O)N2CCCCC2c2ccc(C)cc2)o1 (stereo not given)	-14	-16
72	COc1ccc(C2(C(=O)N(Cc3ccccn3)CC3CCCO3)CC2)cc1 (stereo not given)	-2	-5
73	OCCn1ccnc1-c1ncc[nH]1	2	-2
74	N#CC1(NC(=O)c2ccc3c(c2)CCCC3)CCOCC1	6	1
75	NS(=O)(=O)c1ccc(CNC2CCC3(CCNCC3)CC2)cc1	5	3
76	CNCC(=O)NC(C)c1cnn(-c2ccccc2OC)c1 (stereo not given)	-3	27
77	O=C(c1ccco1)N(CCCN1CCOCC1)c1nc2c(F)cccc2s1	-2	-8
78	Cc1c(C(=O)NCc2ccccc2F)oc2ccc(Cl)cc12	-2	-3
79	COc1cccc(C(=O)N(CCN2CCOCC2)Cc2csc(COc3cc(C)cc(C)c3)n2)c1	23	34
80	CNS(=O)(=O)c1ccc(CCC(=O)OC2CCCCC2=O)cc1 (stereo not given)	4	7
81	CC1CCCN(c2nc(-c3ccc(-c4ccccc4)cc3)nc3ccccc23)C1 (stereo not given)	1	5
82	COc1ccc2[nH]c(C(=O)NCCc3ccccn3)c(C)c2c1	11	9
83	CC1(C)CC(=O)C2C(=Nc3ccccc3N(C(=O)Cc3ccccc3)C2c2cccc(O)c2)C1 (stereo not given)	-11	-14
84	Nc1c(NC(=O)N2CCN(C3CCCC3)CC2)c(-c2ccc(Cl)cc2)nn1-c1ccccc1	5	3
85	COc1ccc(CCN2CC(NC(=O)Cn3cccn3)CC2=O)cc1 (stereo not given)	5	2
86	COCCN1C(=O)Cc2c1nc(N)c1c(N)nc(N3CCC(C)CC3)c(C#N)c21	1	-3
87	COc1cccc(-c2cc(CC(=O)O)no2)c1	-6	-5
88	O=C1C(=O)N(CCCn2ccnc2)C(c2cccc(Br)c2)C1=C(O)c1ccc(F)cc1 (stereo not given)	3	7
89	Cc1cc(N2CCN(S(=O)(=O)N(C)C)CC2)nc(-c2ccccc2)n1	4	4
90	CN1Cc2ccccc2NCCC1=O	21	31

5 records drawn at random from the list so far, as already listed:
entry	smiles	NPYLR7 ag	NPYLR7 ag max-min
70	O=C(NCC1CCCO1)C1CC(=O)N(C2CCCC2)C1 (stereo not given)	9	6
39	CCN(CC)CCn1c(=N)n(CC(=O)OC)c2ccccc21	2	0
79	COc1cccc(C(=O)N(CCN2CCOCC2)Cc2csc(COc3cc(C)cc(C)c3)n2)c1	23	34
15	Cc1ccccc1-c1nc(CN2CCCC(c3cc(=O)[nH]cn3)C2)c(C)o1 (stereo not given)	-3	-7
80	CNS(=O)(=O)c1ccc(CCC(=O)OC2CCCCC2=O)cc1 (stereo not given)	4	7

Some of the entries so far, as labelled records:
76. CNCC(=O)NC(C)c1cnn(-c2ccccc2OC)c1 (stereo not given)
  NPYLR7 ag = -3	NPYLR7 ag max-min = 27
69. COc1cc(C(=O)OC2CCCCC2=O)cc(OC)c1C (stereo not given)
  NPYLR7 ag = 0	NPYLR7 ag max-min = -2
81. CC1CCCN(c2nc(-c3ccc(-c4ccccc4)cc3)nc3ccccc23)C1 (stereo not given)
  NPYLR7 ag = 1	NPYLR7 ag max-min = 5
75. NS(=O)(=O)c1ccc(CNC2CCC3(CCNCC3)CC2)cc1
  NPYLR7 ag = 5	NPYLR7 ag max-min = 3

Remaining list, next part
entry	smiles	NPYLR7 ag	NPYLR7 ag max-min
91	Cc1ccc2c(c1)c(=O)n(C)c1nnc(COc3ccc(C#N)c(F)c3)n21	-1	-3
92	CC(C)N1C(=O)c2ccccc2[C@@H](C(=O)NCCn2c(=O)[nH]c3ccccc32)[C@@H]1c1ccccc1	-4	-6
93	CCCn1cnnc1C(C)N (stereo not given)	1	-4
94	COCc1cc(CNC(=O)C(=O)N2CCc3ccccc32)[nH]n1	9	7
95	CCN(CC)CCCC(C)N=C(NC(=O)c1ccc2c(c1)OCO2)OCCOC (stereo not given)	7	8
96	O=C(c1cc(-c2ccccc2)on1)N1CCCn2cncc2C1	20	15
97	O=C(NCCSC1CCCC1)Nc1c(F)cccc1F	5	4
98	COc1cc(OC)c(OC)cc1CN1CCCn2cccc2C1c1cc(C)ccc1C (stereo not given)	0	5
99	COCCNc1nc(Oc2cccc(NC(C)=O)c2)c2sccc2n1	5	0
100	Cc1cc(CN2c3cccc4cccc(c34)S2(=O)=O)no1	1	-2
101	Cc1cc(CC(=O)N2C[C@H]3OC(=O)N(Cc4ccccn4)[C@H]3C2)on1	-8	-10
102	COc1ccc(/C=N\Nc2nc(-c3ccccc3)c3cc(Cl)ccc3n2)cc1OC	-3	-10
103	O=C(NCc1ccccn1)c1cccc(OC2CCN(C(=O)c3cnsn3)CC2)c1	5	0
104	Cc1cc(C)cc(NCC(=O)Nc2ccccc2)c1	8	7
105	O=C(c1ccc(CCl)cc1)N1CCCC1	-12	-7
106	CCC(CNC(=O)CN(C)C1CCCC1SC)c1ccccc1 (stereo not given)	2	0
107	CN1C(=O)CON=C1c1ccc(F)cc1	3	1
108	Cc1ccc2nc(N3CCN(CC(=O)NC(C)C)CC3)cc(C)c2c1	9	6
109	Cc1n[nH]c(=S)n(N=CC2=CCC3CC2C3(C)C)c1=O (stereo not given)	-2	6
110	O=C(O)COc1ccc(-n2ccnc2-c2ccccn2)cc1Cl	1	-4
111	O=[N+]([O-])c1ccc(Sc2nnnn2-c2ccccc2)cn1	3	1
112	N#C[C@@H]1CCCN1C(=O)CNC12CC3CC(CC(O)(C3)C1)C2	2	-7
113	Cc1noc(C)c1NC(=O)N1CCN(C(c2ccc(F)cc2)c2ccc(F)cc2)CC1	5	-3
114	CC1=C(CC(=O)N2CCc3ccccc3C2)c2cc(F)ccc2/C1=C\c1ccc(S(C)=O)cc1 (stereo not given)	-8	-15
115	CC(C)NC(=O)c1cc(-c2ccc(F)cc2)nc2cc(C(C)(C)C)nn12	7	12
116	O=C(NC1CCN(c2ccccc2C(=O)N2CCc3ccccc3C2)CC1)c1cccs1	15	11
117	Cc1ccccc1NC(=O)CCCn1nc(-c2ccccc2)ccc1=O	-1	3
118	Cc1nn(-c2ccccc2)c(C)c1C(=O)N(C)Cc1ccccc1	54	35

Screening results deposited in PubChem BioAssay by Fisher Drug Discovery Resource Center.

Some of the compounds tested, so the mix of outcomes need not match the whole.
